FGF22 binding – binders of human FGF22 protein, primary screen, FGF22 synaptogenesis inhibitor project, biophysical, thermal shift, single point. Fibroblast growth factor 22 (Homo sapiens), Q9HCT0. recombinant FGF22 thermal shift, SYPRO orange fluorescence; percent of sucrose octasulfate shift, DMSO zero. calls only at 9.99 µM. actives 1.5% (n = 340,000);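 active = melting point raised past a set limit in the mean and every replicate; three in four hits are not shown here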
Target sequence (Q9HCT0 whole entry, looked up): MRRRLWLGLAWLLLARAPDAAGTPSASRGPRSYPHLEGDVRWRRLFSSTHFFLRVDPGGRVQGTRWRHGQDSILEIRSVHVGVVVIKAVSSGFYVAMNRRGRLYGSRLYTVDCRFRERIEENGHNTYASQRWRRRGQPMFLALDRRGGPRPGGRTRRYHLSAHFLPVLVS
rRNA inh HTS – reduced GFP signal of wild-type E. coli, primary screen, bacterial rRNA inhibitor project, GFP/RFP fluorescence, OD600, single point. actives 1.6% (n = 350,000). AID 720706, 2013. GFP signal change (wild-type ribosome), % (no concentration beside the values). E. coli WT GFP vs humanized-ribosome RFP mutants, 24 h; hits give low values; DMSO median 0, no signal -100;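 active = significant combined selectivity score with lowered wild-type GFP, culture density cut under 30%, mutant RFP and density less affected; inactive = any of these conditions unmet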; also: one replicate is shown; some compounds called inactive have numbers as strong as hits
rRNA inh HTS OD600 – also measured in rRNA inh HTS; calls as there; OD600 change, %; measured here: OD600 growth;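 optical density of the mix in the first replicate; 0 = DMSO median and -100 = no signal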
rRNA inh HTS RFP – also measured in rRNA inh HTS; calls as there; RFP signal change, %; measured here: RFP humanized mutant strains;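 first replicate; 0 = DMSO median and -100 = no signal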
* marks the source's active call; other numbers are inactive results; i = inactive; + = active, no number. These rows are one share of the data; the hit share may differ from the screen's.

SMILES	FGF22 binding	rRNA inh HTS	rRNA inh HTS OD600	rRNA inh HTS RFP
CNC[C@@H]1OCCCC[C@@H](C)Oc2ccc(NS(=O)(=O)c3ccccc3)cc2C(=O)N([C@@H](C)CO)C[C@H]1C	i	4.8	6.5	-1.7
CO[C@H]1CN(C)C(=O)c2ccc(NC(=O)Nc3ccccc3)cc2OC[C@H](C)N(C(=O)CN(C)C)C[C@H]1C	i	1.4	4.8	-1.4
C[C@@H]1CN([C@H](C)CO)C(=O)c2cc(NC(=O)Cc3ccccc3)ccc2O[C@H]1CN(C)C	i	-0.7	1.5	-1.0
C[C@@H]1CCCCO[C@H](CN(C)C(=O)NC2CCCCC2)[C@H](C)CN([C@H](C)CO)C(=O)c2cc(NC(=O)CCC(F)(F)F)ccc2O1	i	-1.7	-1.5	-1.8
C[C@H](CO)N1C[C@H](C)[C@@H](CN(C)Cc2ccc(-c3ccccc3)cc2)Oc2ccc(NS(=O)(=O)c3cccs3)cc2C1=O	i	-0.1	-13.7	5.9
CCCNC(=O)Nc1ccc2c(c1)C(=O)N(C)C[C@@H](OC)[C@H](C)CN(C(C)=O)[C@@H](C)CO2	i	0.3	0.3	-2.8
C[C@H](CO)N1C[C@H](C)[C@@H](CN(C)CC2CCCCC2)Oc2ccc(NC(=O)Nc3cccc4ccccc34)cc2C1=O	i	-0.3	3.1	3.9
C[C@H]1CN([C@@H](C)CO)C(=O)c2cc(NC(=O)Cc3cn(C)c4ccccc34)ccc2O[C@H]1CN(C)C(=O)Nc1ccccc1	i	-2.2	0.3	3.0
CCCC(O)C#Cc1cnc2c(c1)C(=O)N([C@H](C)CO)C[C@H](C)[C@H](CN(C)C(=O)Nc1ccccc1)O2 (stereo partly drawn)	i	-4.1	-2.4	-3.3
CNC[C@@H]1OCCCC[C@H](C)Oc2ccc(NS(=O)(=O)c3cn(C)cn3)cc2C(=O)N([C@@H](C)CO)C[C@@H]1C	i	4.0	7.3	-3.8
O=C(C[C@@H]1CC[C@@H]2[C@H](COC[C@@H](O)CN2C(=O)Nc2cccc(Cl)c2)O1)NCC1CCCCC1	+	-55.7	-77.6	-15.0
CCCNC(=O)N(C)C[C@@H]1Oc2cc(C#C[C@@H](C)O)ccc2S(=O)(=O)N([C@H](C)CO)C[C@@H]1C	i	4.3	21.9	1.5
Cc1noc(C)c1NC(=O)N(C)C[C@@H]1Oc2c(NS(=O)(=O)c3ccccc3)cccc2C(=O)N([C@H](C)CO)C[C@@H]1C	i	2.1	-2.3	-3.0
COc1ccccc1NC(=O)N1CCCCN2[C@H](CO)[C@H](c3ccc(C#Cc4ccccc4)cc3)[C@H]2C1	i	-57.1	-69.8	-7.3
CO[C@@H]1CN(C)C(=O)c2cc(NC(C)=O)ccc2OC[C@H](C)N(C(=O)c2ccc(F)cc2)C[C@H]1C	i	0.3	-6.0	-2.2
C=CS(=O)(=O)N[C@@H](CSSC[C@H](NS(=O)(=O)C=C)C(=O)OC)C(=O)OC	i	13.9	9.3	-0.4
CN1C[C@H]2[C@@H](c3ccccc31)[C@@H](CO)N2C(=O)C1CCOCC1	i	7.4	15.9	-1.2
O=C([C@H]1[C@H](CO)[C@H]2Cn3c(cccc3=O)[C@@H]1N2CC1CC1)N1CCc2ccccc2C1	i	3.9	7.7	-2.6
CCC(=O)Nc1ccc2c(c1)C(=O)N(C)C[C@H](OC)[C@H](C)CN(Cc1ccncc1)[C@H](C)CO2	i	-0.1	2.5	-0.9
CO[C@H]1CN(C)C(=O)c2ccc(NC(=O)NC(C)C)cc2OC[C@@H](C)N(C)C[C@H]1C	i	-0.6	-3.5	-3.5
Cc1noc(C)c1S(=O)(=O)N(C)C[C@H]1Oc2ccc(NC(=O)Nc3ccc4c(c3)OCO4)cc2CC(=O)N([C@H](C)CO)C[C@@H]1C	i	0.5	-9.0	0.7
CC(=O)N1CC2(C1)[C@H](c1ccccc1)[C@@H](CO)N2C(=O)c1ccncc1	i	-0.9	-14.4	-0.7
CCNC(=O)C[C@@H]1CC[C@H]2[C@@H](COC[C@H](O)CN2C(=O)Nc2ccc(Cl)c(Cl)c2)O1	i	-52.5	-68.8	-9.6
N#Cc1cccc(-c2ccc3c(c2)[C@@H]2[C@@H](CCN2S(=O)(=O)c2ccccc2)[C@H](CO)N3)c1	i	-20.0	-23.0	2.9
COCC(=O)N(C)C[C@H]1Oc2ncc(Br)cc2C(=O)N([C@@H](C)CO)C[C@@H]1C	i	4.3	2.0	2.3
COc1ccccc1-c1cn(CC[C@H]2CC[C@@H](NC(=O)c3ccccc3F)[C@@H](CO)O2)nn1	i	-7.7	-6.8	-0.9
CO[C@H]1CN(C)C(=O)c2cc(NC(=O)C3CCOCC3)ccc2OC[C@H](C)N(C)C[C@@H]1C	i	-2.1	0.1	0.2
CC(C)NC(=O)N[C@H]1CC[C@@H](CCNC(=O)C2CCOCC2)O[C@H]1CO	i	3.4	6.8	-2.0
CCCNC(=O)Nc1ccc2c(c1)OC[C@H](C)N(CCC)C[C@H](C)[C@H](OC)CN(C)C2=O	i	1.7	12.8	-6.5
C[C@@H]1CN([C@@H](C)CO)C(=O)Cc2cc(NC(=O)CCC(F)(F)F)ccc2O[C@H]1CN(C)C(=O)Nc1ccc2c(c1)OCO2	i	-1.8	-5.9	1.3
O=C(C(=O)N1CCC(CNS(=O)(=O)c2ccccc2OC(F)(F)F)CC1)c1cc2ccccc2o1	i	-8.5	-10.9	-0.1
CN1CCN(C(=O)C[C@@H]2CC[C@H]3[C@@H](COC[C@@H](O)CN3C(=O)Nc3ccc4c(c3)OCO4)O2)CC1	i	0.1	-7.3	-1.2
COCC(=O)N1[C@@H](CO)[C@@H](c2ccccc2)C12CN(C(=O)c1cccnc1)C2	i	1.6	9.3	-4.5
C[C@H]1CN([C@@H](C)CO)C(=O)Cc2cc(NS(=O)(=O)c3ccccc3)ccc2O[C@@H]1CN(C)Cc1ccc(-c2ccccc2)cc1	i	-3.5	-11.5	0.6
CS(=O)(=O)N1[C@H](C#N)[C@H](c2ccc(C#CC3CCCC3)cc2)[C@@H]1CO	i	-42.5	-63.3	-2.2
N#C[C@@H]1[C@H](c2ccc(-c3ccc(F)cc3)cc2)[C@H](CO)N1C(=O)Cc1ccccc1	i	-16.6	-51.5	0.7
Cc1cccc(S(=O)(=O)N(C)C[C@H]2OCc3ccccc3-c3ccccc3C(=O)N([C@H](C)CO)C[C@H]2C)c1	i	0.1	-13.6	3.4
COCC(=O)Nc1ccc2c(c1)C(=O)N(C)C[C@H](OC)[C@@H](C)CN(CC1CC1)[C@@H](C)CO2	i	1.9	-1.8	-0.9
CN(C)C(=O)C[C@H]1CC[C@H]2[C@@H](COC[C@@H](O)CN2CC2CCCCC2)O1	i	-4.8	5.0	3.0
CN1CCN(C(=O)C[C@H]2CC[C@H]3[C@@H](COC[C@H](O)CN3C(=O)c3ccc(F)cc3)O2)CC1	i	1.3	7.3	25.0
Cc1noc(C)c1S(=O)(=O)Nc1ccc2c(c1)CC(=O)N([C@H](C)CO)C[C@@H](C)[C@@H](CN(C)Cc1ccc(-c3ccccc3)cc1)O2	i	-0.9	-3.4	1.6
CCNC(=O)C[C@H]1C=C[C@@H](NC(=O)NC2CCCCC2)[C@@H](CO)O1	i	4.3	-3.3	5.7
C[C@@H]1CN([C@@H](C)CO)C(=O)c2cc(NC(=O)CCN3CCOCC3)ccc2O[C@@H]1CN(C)Cc1ccc(Oc2ccccc2)cc1	i	1.1	-0.6	9.1
COc1cccc(S(=O)(=O)N[C@H]2CC[C@H](CCNC(=O)Cc3ccncc3)O[C@H]2CO)c1	i	0.7	1.5	-0.2
CN1C[C@H]2[C@@H](c3ccccc31)[C@H](CO)N2C(=O)c1ccccn1	i	4.0	-5.4	-1.4
COc1ccc(S(=O)(=O)N(C)C[C@H]2Oc3ccc(NC(=O)NC(C)C)cc3CC(=O)N([C@@H](C)CO)C[C@@H]2C)cc1	i	-0.7	1.9	0.8
COc1ccccc1-c1ccc2c(c1)O[C@@H](CN(C)C)[C@@H](C)CN([C@@H](C)CO)S2(=O)=O	i	5.9	3.3	-4.5
O=C(C[C@H]1C=C[C@@H](NC(=O)Nc2ccc(F)cc2)[C@@H](CO)O1)NCc1ccccn1	i	0.7	3.6	-1.2
CC(C)NC(=O)N1CCCCN2[C@H](CO)[C@H](c3ccc(C#Cc4ccccc4F)cc3)[C@H]2C1	i	-57.1	-75.8	-15.4
O=S(=O)(Cc1ccccc1)N1CCCCN2[C@@H](CO)[C@H](c3ccc(C#Cc4ccccc4)cc3)[C@@H]2C1	i	-47.2*	-35.0*	-0.1*
Cc1ccc(S(=O)(=O)N(C)C[C@H]2Oc3ccc(NS(=O)(=O)c4ccccc4)cc3CC(=O)N([C@@H](C)CO)C[C@H]2C)cc1	i	-3.7	-10.1	4.2
C[C@@H]1CN([C@H](C)CO)C(=O)c2cc(NC(=O)C3CCCCC3)ccc2O[C@@H](C)CCCCO[C@@H]1CN(C)Cc1ccc(Cl)c(Cl)c1	i	2.6	-0.4	3.0
CO[C@H]1CN(C)C(=O)c2cc(NC(=O)Nc3cc(F)ccc3F)ccc2OC[C@H](C)NC[C@H]1C	i	-0.5	4.8	-0.1
COc1cccc(CN2CC3(C2)CN(C(=O)C2CC2)[C@@H](CO)c2[nH]c4cc(OC)ccc4c23)c1	i	-4.7	-8.4	1.3
CN(C)C(=O)C[C@H]1CC[C@H]2[C@@H](COC[C@H](O)CN2C(=O)c2ccncc2)O1	i	8.1	6.6	-1.1
CCCN(C)C[C@H]1OCCCC[C@@H](C)Oc2ccc(NC(=O)CCCN(C)C)cc2C(=O)N([C@@H](C)CO)C[C@H]1C	i	3.9	3.3	-2.7
Cc1cccc(S(=O)(=O)N(C)C[C@H]2OCc3ccccc3-c3c(n(C)c4ccccc34)C(=O)N([C@@H](C)CO)C[C@H]2C)c1	i	0.7	9.8	-0.1
C[C@@H]1CN([C@H](C)CO)C(=O)c2cc(NC(=O)CCC(F)(F)F)ccc2O[C@@H](C)CCCCO[C@@H]1CN(C)C(=O)Cc1ccccc1	i	-1.4	-2.3	1.3
C[C@@H]1CCCCO[C@H](CN(C)S(=O)(=O)c2cccs2)[C@H](C)CN([C@H](C)CO)C(=O)c2cc(N(C)C)ccc2O1	i	-4.6	-11.2	0.4
CCN1[C@H](C(=O)NCc2ccncn2)[C@@H](CO)[C@@H]2Cn3c(ccc(-c4ccc(F)cc4)c3=O)[C@@H]21	i	-1.7	3.8	3.6

The last two records of the section above come first, to join the parts:
SMILES	FGF22 binding	rRNA inh HTS	rRNA inh HTS OD600	rRNA inh HTS RFP
C[C@@H]1CCCCO[C@H](CN(C)S(=O)(=O)c2cccs2)[C@H](C)CN([C@H](C)CO)C(=O)c2cc(N(C)C)ccc2O1	i	-4.6	-11.2	0.4
CCN1[C@H](C(=O)NCc2ccncn2)[C@@H](CO)[C@@H]2Cn3c(ccc(-c4ccc(F)cc4)c3=O)[C@@H]21	i	-1.7	3.8	3.6
C[C@H](O)C#Cc1cnc2c(c1)C(=O)N([C@@H](C)CO)C[C@H](C)[C@H](CN(C)C(=O)CC1CC1)O2	i	-1.1	-4.5	-2.5
O=C(C[C@@H]1CC[C@H]2[C@@H](COC[C@H](O)CN2S(=O)(=O)c2ccc(Cl)cc2)O1)NCCN1CCCC1	i	1.7	2.3	-3.0
Cc1noc(C)c1S(=O)(=O)Nc1ccc2c(c1)C(=O)N([C@H](C)CO)C[C@H](C)[C@H](CN(C)C(=O)C1CCCCC1)OCCCC[C@H](C)O2	i	-1.2	-3.6	0.1
C/C=C/c1cnc2c(c1)C(=O)N([C@H](C)CO)C[C@H](C)[C@H](CN(C)C(=O)NC1CCCCC1)O2	i	0.7	10.4	-1.0
C[C@@H]1CCCCO[C@@H](CN(C)C(=O)Nc2ccccc2)[C@H](C)CN([C@@H](C)CO)C(=O)c2cc(NS(=O)(=O)c3cccs3)ccc2O1	i	-11.8	-8.7	0.9
C[C@H](CO)N1C[C@H](C)[C@@H](CN(C)Cc2ccccn2)Oc2ncc(C#CCc3ccccc3)cc2C1=O	i	-4.5	-19.4	15.8
O=C(C[C@@H]1CC[C@H]2[C@@H](COC[C@@H](O)CN2Cc2ccc3c(c2)OCO3)O1)Nc1ccc(-c2ccccc2)cc1	i	0.3	-12.4	4.3
O=C(C[C@@H]1C[C@@H]2c3cc(NS(=O)(=O)c4ccccc4)ccc3O[C@@H]2[C@@H](CO)O1)N1CCOCC1	i	-0.4	-1.1	0.2
COCC(=O)Nc1ccc2c(c1)[C@H]1C[C@H](CC(=O)N[C@H](C)c3ccccc3)O[C@@H](CO)[C@H]1O2	i	-1.4	8.4	-0.3

In another format: entries from further up
Results follow in this order: FGF22 binding, rRNA inh HTS, rRNA inh HTS OD600, rRNA inh HTS RFP
- O=C(C[C@@H]1CC[C@@H]2[C@H](COC[C@@H](O)CN2C(=O)Nc2cccc(Cl)c2)O1)NCC1CCCCC1
→ +, -55.7, -77.6, -15.0
- CCCNC(=O)N(C)C[C@@H]1Oc2cc(C#C[C@@H](C)O)ccc2S(=O)(=O)N([C@H](C)CO)C[C@@H]1C
→ i, 4.3, 21.9, 1.5
- Cc1noc(C)c1NC(=O)N(C)C[C@@H]1Oc2c(NS(=O)(=O)c3ccccc3)cccc2C(=O)N([C@H](C)CO)C[C@@H]1C
→ i, 2.1, -2.3, -3.0

Compound activity (PubChem BioAssay)
